Hedgehog cleavage: Hh protein inhibition, biochemical readout – plate reader, single concentration, primary screen (AID 588832); Biochemical plate reader assay, Hedgehog inhibition; hits give high values; inhibition, % at 30.3 µM; 8,000 tested, under 10 active; in the data active = inhibition from about 57%;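 note: 0% = neutral control wells and 100% = positive control wells; cholesterol-driven self-cleavage of fly hedgehog protein by fluorescence polarization; read one hour after cholesterol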
The depositor's hits bear a star.

mol | Hedgehog cleavage
CC(C)CC(NC(=O)c1ccco1)C(=O)Nc1ccc2c(c1)OCCO2 (stereo unspecified) | 4
CCOCCn1c(SCc2ccccc2)nc2c1c(=O)[nH]c(=O)n2C | 7
Cc1c(S(=O)(=O)N2CCN(C(=O)c3ccco3)CC2)c(=O)n(C)c(=O)n1C | 4
Clc1ccc(C2Nc3ccccc3-n3cccc32)cc1 (stereo unspecified) | 0
Cc1cccc(N2CCN(C(=O)CCC(=O)N3CC(C)Oc4ccc(C)cc43)CC2C)c1 (stereo unspecified) | 5
CCCCCn1c(CN2CCN(CCO)CC2)nc2c1c(=O)n(C)c(=O)n2C | -9
O=C(COC(=O)C1CC(=O)N(C2CCCCC2)C1)c1ccc(F)cc1 (stereo unspecified) | 15
COc1ccc2c(c1)cc(C(=O)N[C@@H](CCSC)C(=O)N1CCC[C@H]1C(=O)O)n2C | 7
CCOc1ccc(NC(=O)C2=C(C)C(=O)OC23CCC(C)CC3)cc1 (stereo unspecified) | 15
COc1cc2oc(-c3ccc(O)cc3)cc(=O)c2c(O)c1OC | 9
CC(C)C[C@@H](C(=O)NCc1ccco1)N1C(=O)N2CCc3c([nH]c4ccccc34)[C@@]2(C)C1=O | 7
COc1ccc(NC(=O)C2=CC(c3ccc(C)cc3)=NS(=O)(=O)N2C)cc1 | 5
CCCn1c(CN(Cc2ccccc2)Cc2ccccc2)nc2c1c(=O)n(C)c(=O)n2C | -4
COC(=O)C1=C2c3[nH]c4ccccc4c3CCN2C(=O)CC1 | 5
CC[C@H](C)/C=C/C1=CC2=C(Cl)C(=O)[C@@]3(C)OC(=O)C(C(=O)[C@H](C)[C@@H](C)O)=C3C2=CO1 | 2
COc1ccc(-c2nnc(SCC(=O)Nc3cc(F)ccc3C)o2)cc1 | 29
COc1cc2oc(=O)ccc2cc1-c1c(OC)ccc2ccc(=O)oc12 | 2
CCOC(=O)C1CCN(c2c(C(=O)c3ccccc3)cnc3ccc(CC)cc23)CC1 | 8
C=CCc1ccc(O)c(-c2ccc(O)c(CC=C)c2)c1 | 12
Cn1cc(S(=O)(=O)N2CCOCC2)cc1C(=O)NCCc1ccccc1 | 4
Cc1cccc(OCc2nc(C#N)c(N3CC(C)CC(C)C3)o2)c1 (stereo unspecified) | 13
CCc1cc(=O)oc2c3c(cc(OCC(=O)NC4CC4)c12)OC(C)(C)CC3 | 2
COC(=O)Cn1c(CN2CCc3ccccc3C2)nc2c1c(=O)n(C)c(=O)n2C | 5
CC(C)CCSc1nnc(Cn2c(=O)sc3ccccc32)n1C | 9
CCCCOC(=O)c1cccnc1 | 4

Filtered by structure, those above containing a carbonyl joined to an NH by a bond outside any ring (8)
mol | Hedgehog cleavage
CC(C)CC(NC(=O)c1ccco1)C(=O)Nc1ccc2c(c1)OCCO2 (stereo unspecified) | 4
COc1ccc2c(c1)cc(C(=O)N[C@@H](CCSC)C(=O)N1CCC[C@H]1C(=O)O)n2C | 7
CCOc1ccc(NC(=O)C2=C(C)C(=O)OC23CCC(C)CC3)cc1 (stereo unspecified) | 15
CC(C)C[C@@H](C(=O)NCc1ccco1)N1C(=O)N2CCc3c([nH]c4ccccc34)[C@@]2(C)C1=O | 7
COc1ccc(NC(=O)C2=CC(c3ccc(C)cc3)=NS(=O)(=O)N2C)cc1 | 5
COc1ccc(-c2nnc(SCC(=O)Nc3cc(F)ccc3C)o2)cc1 | 29
Cn1cc(S(=O)(=O)N2CCOCC2)cc1C(=O)NCCc1ccccc1 | 4
CCc1cc(=O)oc2c3c(cc(OCC(=O)NC4CC4)c12)OC(C)(C)CC3 | 2

(cont.)
mol | Hedgehog cleavage
Cc1c(C(=O)NCc2ccccn2)sc2nc(-c3ccccc3)cn12 | 5
Cc1ccc(Cn2c(CN3CC(C)OC(C)C3)nc3c2c(=O)n(C)c(=O)n3C)cc1 (stereo unspecified) | -1
O=C(c1cccc(NC2=NC3CS(=O)(=O)CC3S2)c1)N1CCN(c2ccc(F)cc2)CC1 (stereo unspecified) | 7
COc1ccccc1CNC(=O)[C@H](C)NC(=O)C1CCN(C(=O)[C@@H]2CCCN2C(=O)OC(C)(C)C)CC1 | 7
CCOC(=O)N1CCN(C(=O)CS(=O)Cc2nc(-c3cccc(C)c3)oc2C)CC1 (stereo unspecified) | -1
Cc1cc(Nc2ccc(C(=O)O)cc2)n2nc(C)nc2n1 | 17
CCCCc1cc(=O)oc2cc(OCC(=O)N3CCC(C(N)=O)CC3)ccc12 | 5
O=P(O)(OCc1ccccc1)OCc1ccccc1 | 7
Cc1cc(NC(=O)CSc2c3c(nc4ccccc24)CCC3)no1 | 4
CCOC(=O)C1CCN(C(c2cccc(OC)c2)c2sc3nc(C)nn3c2O)CC1 (stereo unspecified) | -4
CCOc1ccccc1N1Cc2cc(C)c(C)cc2C1 | 8
COc1ccc(Cl)cc1NC(=O)Cn1c(=O)n2nc(C)nc2c2ccccc21 | 11
COc1cc(C2CC(=O)N3CN(Cc4ccccc4)CSC3=C2C#N)ccc1OCc1ccccc1 (stereo unspecified) | 4
Cn1c(=O)oc2cc(S(=O)(=O)NCCN3CCN(c4ccccc4F)CC3)ccc21 | -3
CSc1ccccc1NC(=O)C1=CC(c2cccs2)=NS(=O)(=O)N1C | 4
COCCn1c(SCc2cccnc2)nnc1-c1c[nH]c2ccccc12 | 9
COc1ccc(C(=O)c2coc3ccc(O)c(CN(C)C)c23)cc1 | 2
CCCOC(=O)c1[nH]c2c(c1C)C(=O)CC(c1cc(OC)c(OC)c(OC)c1)C2 (stereo unspecified) | 8
Cc1ccc(CCNC(=O)C2CCCN2S(=O)(=O)c2ccc3c(c2)CCC(=O)N3)cc1 (stereo unspecified) | 5
COc1ccccc1NC(=O)NCCCN1CCN(c2cccc(Cl)c2)CC1 | -5
Cc1cccc(C(=O)O)c1O | 7
COc1ccc2c(c1)oc(=O)c1ccccc12 | 3
O=C(CCn1c(=O)sc2ccccc21)NCc1ccccc1 | 7
COc1ccc(-c2noc(N3CCC(C(=O)Nc4ccccc4OC)CC3)n2)cc1 | 9
O=C(O)c1ccccc1 | 3

(more compounds)
mol | Hedgehog cleavage
Cc1c(OC(C)C(=O)N2C[C@H]3C[C@@H](C2)c2cccc(=O)n2C3)ccc2c3c(c(=O)oc12)CCCC3 (stereo partly specified) | 3
CC1Cc2ccccc2N1C(=O)C1CCCN(S(=O)(=O)c2cccc3cccnc23)C1 (stereo unspecified) | 13
O=c1c2[nH]c3ccc(F)cc3c2ncn1CCN1CCN(Cc2ccccc2)CC1 | 0
CC(C)[C@H]1C(=O)Nc2ccccc2N1C(=O)N[C@@H](Cc1ccccc1)C(=O)N[C@H](C(=O)O)c1ccccc1 | 5
CCOC(=O)N1CCC(NC(=O)C2CCN(Cc3nc(-c4ccc(CC)cc4)oc3C)CC2)CC1 | 1
O=C(CSc1nc2ccccc2nc1N1CCCC1)Nc1ccc(F)cc1 | 5
COc1ccc(O)cc1 | 2
Cc1ccc(C(C)C)c(O)c1 | 3
COCCNC(=O)c1cc2c(=O)n(C)c3ccccc3c2n1C | 15
COc1ccc(-c2nc(CNS(=O)(=O)c3cc(OC)ccc3OC)cs2)cc1 | 2
CCOc1ccc(NC(=O)c2cc3c(=O)n(C)c4ccccc4c3n2C)cc1 | 25
Cc1ccc(C)c2sc(NC(=O)C3CC3)nc12 | 10
CCCN(CCC)C(=O)Cn1c2ccccc2c2nc(=O)cc(C)n21 | 3
CCOCCCNC(=O)c1ccc2c(c1)N(Cc1ccccc1)C(=O)CS2=O (stereo unspecified) | 17
CCOC(=O)N1CCN(c2cc(=O)n(-c3ccc(Br)cc3)c(=O)[nH]2)CC1 | 7
c1ccc(OCc2nnc3sc(C4COc5ccccc5O4)nn23)cc1 (stereo unspecified) | 2
COc1cc(C2CC(=O)N3CN(Cc4ccco4)CSC3=C2C#N)ccc1OCc1ccccc1 (stereo unspecified) | 3
CCOC(=O)C(C)C(C)=O (stereo unspecified) | 2
CN(Cc1ccccc1)c1oc(COc2ccccc2F)nc1C#N | 23
Cc1[nH]c2ccccc2c1SCc1ccccc1 | 5
Cc1ccc(N2CCN(S(=O)(=O)c3nnc(NC(=O)c4ccccc4)s3)CC2)cc1 | 5
O=C(Nc1nc2c(F)cccc2s1)c1ccco1 | 1
Cc1nc2sc(C(c3cccs3)N3CCC(C(N)=O)CC3)c(O)n2n1 (stereo unspecified) | 3
COc1ccc(-c2cc3c(=O)n(CC(=O)NCc4cccnc4)ncn3n2)cc1 | 0
O=C(CN1CCOc2ccccc21)NC1CC1 | 17

(list continues)
mol | Hedgehog cleavage
CCOC(=O)N1CCN(CC(O)c2ccc3cc[nH]c3c2)CC1 (stereo unspecified) | 10
CCCN1Cc2cccc(C(=O)Nc3ccc4c(c3)OCCO4)c2C1=O | 17
CCn1cc(C(=O)NCCCN2CC(C)CC(C)C2)c(=O)c2cc(S(=O)(=O)N(C)C)ccc21 (stereo unspecified) | 1
C[C@@H]1C[C@H]2[C@@H]3CCC4=CC(=O)C=C[C@]4(C)[C@@]3(F)[C@@H](O)C[C@]2(C)[C@@]1(O)C(=O)CO | 9
C=C(C)[C@H]1CC=C(C)C(=O)C1 | 5
Cc1c(OCC(=O)N2C[C@H]3C[C@@H](C2)c2cccc(=O)n2C3)ccc2c3c(c(=O)oc12)CCC3 | 5
CCC(=O)NCCc1nc2ccccc2n1CC | 0
COc1cc(C)c(C(=O)Oc2cc(C)c(C(=O)O)c(O)c2C)c(O)c1C(=O)O | 5
Cc1ccc(C2=NS(=O)(=O)N(C)C(C(=O)Nc3ccc4c(c3)OCO4)=C2)cc1 | 33
COc1ccc(-c2csc(NC(=O)C3COc4ccccc4O3)n2)cc1OC (stereo unspecified) | 7
CC(C)c1ccc(C2c3[nH]c4ccccc4c3C[C@H]3C(=O)N(c4ccccc4C(=O)N4CCC[C@H]4C(=O)O)C(=O)N23)cc1 (stereo partly specified) | 3
Nc1nc2n(n1)C(c1ccccc1)CC(c1ccc(F)cc1)N2 (stereo unspecified) | 5
CC1(C)Cc2c(C#N)c(NC3CCCCC3)nc(-c3ccco3)c2CO1 | 4
CCOc1ccc2nc(N3CCC(C(=O)N4CCN(c5ncccn5)CC4)CC3)sc2c1 | 10
CCOC(=O)CCSCC(=O)Nc1nnc(C)s1 | 10
CC(=O)c1ccc(OCC(O)CN2CCOCC2)cc1 (stereo unspecified) | 2
COc1cc(C2CC(=O)c3c(O)cc(O)cc3O2)ccc1O (stereo unspecified) | 8
CCCCCSc1nc2c(c(=O)[nH]c(=O)n2C)n1CCc1ccccc1 | 7
CCN(C(=O)c1cc(S(=O)(=O)N2CCOCC2)cn1C)c1cccc(C)c1 | 10
CCC(C)NC(=O)CS(=O)Cc1nc(-c2ccccc2C)oc1C (stereo unspecified) | 3
O=C(CC(=O)OCc1ccccc1)OCc1ccccc1 | 7
CCN(CC)C(=O)C1CCN(S(=O)(=O)c2ccc(C3CNC(=O)C3)cc2)CC1 (stereo unspecified) | 4
CN(CCNS(=O)(=O)c1ccc2c(c1)oc(=O)n2C)Cc1ccccc1 | 5
Brc1ccccc1-c1ccccc1 | 7
CCc1ccc2ncc(C(=O)c3ccccc3)c(N3CCOCC3)c2c1 | 3

Copied from the list:
For Hedgehog cleavage, `CCN(CC)C(=O)C1CCN(S(=O)(=O)c2ccc(C3CNC(=O)C3)cc2)CC1` (stereo unspecified) reads 4
For Hedgehog cleavage, `CCn1cc(C(=O)NCCCN2CC(C)CC(C)C2)c(=O)c2cc(S(=O)(=O)N(C)C)ccc21` (stereo unspecified) reads 1
For Hedgehog cleavage, `C[C@@H]1C[C@H]2[C@@H]3CCC4=CC(=O)C=C[C@]4(C)[C@@]3(F)[C@@H](O)C[C@]2(C)[C@@]1(O)C(=O)CO` reads 9

More results follow:
mol | Hedgehog cleavage
CCOc1ccc(CCNS(=O)(=O)c2cc3c(cc2C)NC(=O)CO3)cc1OCC | -4
COc1cc2cc(Oc3ccc4ccc(=O)oc4c3)c(=O)oc2cc1OC(C)=O | 14
Cc1ccc2oc(=O)c3cnn(CC(=O)NCCc4ccsc4)c3c2c1 | 5
CCOC(=O)N1CCC(N2C(=O)c3ccccc3C2Nc2cccnc2)CC1 (stereo unspecified) | 2
CN(C(=O)c1ccco1)c1nnc(C23CC4CC(CC(C4)C2)C3)s1 | 4
COc1ccc(-c2cc(C(=O)N3CCN(S(=O)(=O)c4ccccc4)CC3)[nH]n2)cc1 | 11
COc1cccc(NC(=O)CSc2nnc(-c3ccc(C)cc3)o2)c1 | 17
O=C(N/N=C/c1ccccc1)c1ccc(N2CCCC2=O)cc1 | 4
CCC1CCCCN1C(=O)CSc1nnc(-c2cccc(Cl)c2)o1 (stereo unspecified) | 8
COc1ccc(OC)c(C2CC(=O)c3c([nH]c(C(=O)OC(C)C)c3C)C2)c1 (stereo unspecified) | 17
CCn1c(C2CC(=O)N(c3cc(C)cc(C)c3)C2)nc2ccccc21 (stereo unspecified) | 11
O=C(NCCc1csc(-c2cccnc2)n1)c1ccco1 | 24
CC(Oc1ccc2c(c1)oc(=O)c1ccccc12)C(=O)NC(Cc1c[nH]c2ccc(O)cc12)C(=O)O (stereo unspecified) | 7
COc1ccc(CC(=O)Nc2nnc(-c3cccc([N+](=O)[O-])c3)s2)cc1 | 4
COc1ccc(NC(=O)C2=CC(c3ccc(OC)c(OC)c3)=NS(=O)(=O)N2C)cc1 | 5
COc1cccc(CNC(=O)COc2cc(O)c3c(c2)OC(C)(C)CC3=O)c1 | 5
CCOCCn1c(CN2CCN(CCO)CC2)nc2c1c(=O)n(C)c(=O)n2C | 7
O=C(CCC(=O)N1CCOc2ccc(Cl)cc21)NCCCN1CCOCC1 | 7
CCOCCn1c(SCc2ccc(F)cc2)nc2c1c(=O)[nH]c(=O)n2C | -4
Nc1nc2n(n1)C(c1ccco1)CC(c1ccc(F)cc1)N2 (stereo unspecified) | 23
O=C(O)Cn1cc(F)c(=O)[nH]c1=O | 10
COC(=O)Cn1c(=NC(=O)C2CC2)sc2c(C)cc(C)cc21 | 2
CC1CCN(C2=NN3C(=N)/C(=C\c4ccc(OC(=O)c5ccco5)cc4)C(=O)N=C3S2)CC1 | 4

An excerpt from above in order of length of the SMILES, descending:
mol | Hedgehog cleavage
CC1(C)Cc2c(C#N)c(NC3CCCCC3)nc(-c3ccco3)c2CO1 | 4
COC(=O)Cn1c(=NC(=O)C2CC2)sc2c(C)cc(C)cc21 | 2
COc1cc(C2CC(=O)c3c(O)cc(O)cc3O2)ccc1O (stereo unspecified) | 8

Screens deposited in PubChem by Broad Institute.

An excerpt, so the mix of outcomes need not match the whole.
